Tgondii IFNg = inhibitors of Toxoplasma gondii growth with IFN-gamma | Toxoplasma gondii growth in IFN-gamma-treated host cells; hits give low values; reference of the scale not given here | activity change, negative = inhibition, %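 (about 20 µM by stock and volumes)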 | 3.8% of 69,000 active | AID 1259416;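 active = below -70%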;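 also: host cells are HeLa cells infected with Toxoplasma gondii; parasite growth read as luciferase light; one replicate is shown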
Numbers without * were called inactive; i = inactive; & = joins results of further samples.

SMILES	Tgondii IFNg
O=C(C[C@@H]1CC[C@@H](NC(=O)c2cccnc2)[C@H](CO)O1)NCc1ccc(Cl)c(Cl)c1	2.2
O=C(NCCc1ccccn1)C1(Oc2ccc(Cl)cc2)CCNCC1	4.9
Cc1c[nH]c(C(=O)N2CCOC(Cc3cccc(C(F)(F)F)c3)C2)c1 (stereo not drawn)	-11.9
O=C(NCc1cn2c(n1)CN(Cc1cccc(F)c1)CC2)C1CCC1	-2.3
COc1ccc(C)cc1NC(=O)C(=O)NCCc1csc(-c2ccc(C)cc2)n1	i
O=C(c1cc2ccccc2oc1=O)N1CCN(S(=O)(=O)c2cc3c4c(c2)CCN4C(=O)CC3)CC1	11.6
CCOc1ccc(NC(=O)C2=C(C)C(=O)OC23CCN(CC)CC3)cc1	366.5
C[C@H]1CN([C@@H](C)CO)C(=O)Cc2cc(NC(=O)CCN3CCOCC3)ccc2O[C@@H]1CN(C)Cc1ccc(C(=O)O)cc1	3.7
CCCc1nc(CN(CC)C(=O)c2ccc3ncsc3c2)no1	3.6
Cc1ccccc1-n1nnc(C(=O)NC(C)Cc2c(C)nn(C)c2C)c1C (stereo not drawn)	-41.5
CC1c2cccn2CCN1Cc1ccc(Sc2nncn2C)o1 (stereo not drawn)	3.0
CCc1cnc(N2CCc3ncc(CNc4ccccn4)n3CC2)nc1	-6.3
COc1ccc(-c2nc3n(c(=O)c2C#N)CCCS3)cc1	44.4
CCC(=O)Nc1ccc(OCC(=O)N(C)Cc2sccc2C)cc1	48.5
Cc1cccc(C(=O)N2CCC(c3nc(C4CCCC4)no3)C2)c1 (stereo not drawn)	-20.8
COc1ccc(CNC(=O)CCC2N=C3c4ccccc4N=C(SCc4ccc(F)cc4)N3C2=O)cc1 (stereo not drawn)	-24.6
COC(=O)C[C@H]1C(C)(C)C(=O)[C@@H]2CC3=C(CC[C@]4(C)C3=CC(=O)O[C@H]4c3ccoc3)[C@@]1(C)C2=O	-46.7
CO[C@@H]1CN(C)C(=O)c2cc(NS(=O)(=O)c3cccc(Cl)c3)ccc2OC[C@H](C)NC[C@H]1C	-13.9
Cc1cc(C(=O)c2ccc(C(C)(C)C)cc2)c(N)s1	19.0
Cc1nn(CC(C)C)cc1S(=O)(=O)N1CCN(C)C(=O)C(Cc2ccccn2)C1 (stereo not drawn)	9.6
CC1(O)C(O)C(CO)OC1n1ccc(N)nc1=O (stereo not drawn)	18.9
C[C@@H]1COCn2nncc2CC[C@H](Cc2cccc(Cl)c2)C(=O)N1	-43.9
CCS(=O)(=O)N1CCC[C@@H]2CN3CCc4cc(OC)ccc4[C@@H]3C[C@@H]21	11.4&11.5
O=C(C[C@H]1CC[C@@H]2NC[C@@H](O)COC[C@H]2O1)Nc1ccc(-c2ccccc2)cc1	-21.7
C=CCN1Cc2ccccc2C2(CCN(c3ccc(C)nn3)CC2)C1	-24.8

Some of the entries above, reformatted.
compound | Tgondii IFNg
O=C(c1cc2ccccc2oc1=O)N1CCN(S(=O)(=O)c2cc3c4c(c2)CCN4C(=O)CC3)CC1 | 11.6
CCOc1ccc(NC(=O)C2=C(C)C(=O)OC23CCN(CC)CC3)cc1 | 366.5
C[C@H]1CN([C@@H](C)CO)C(=O)Cc2cc(NC(=O)CCN3CCOCC3)ccc2O[C@@H]1CN(C)Cc1ccc(C(=O)O)cc1 | 3.7
CCCc1nc(CN(CC)C(=O)c2ccc3ncsc3c2)no1 | 3.6

Later entries.
SMILES	Tgondii IFNg
CCC(=O)N1C[C@H]2CCC[C@]2(COc2ccccn2)C1	-6.6
Cc1noc(C)c1NC(=O)N(C)C[C@H]1OCCCC[C@H](C)Oc2ccc(NC(=O)Nc3ccc(C(F)(F)F)cc3)cc2C(=O)N([C@H](C)CO)C[C@@H]1C	121.7
Cc1ccc(C2=NC3(CCN(CC(=O)Nc4c(C)cccc4C)CC3)NC2=O)cc1	64.3
COCCN1CCOCC2(C1)CN(Cc1nccs1)CCO2 (stereo not drawn)	-0.6
COc1cc(C(=O)NC(C)c2ccc(OC)c3ccccc23)nc(OC)n1 (stereo not drawn)	9.7
CN1C(=O)C(CC(=O)Nc2ccccc2F)S/C1=N/c1nc2ccccc2s1 (stereo not drawn)	-10.7
COc1ccc2c3c(n(C)c2c1)[C@H](CO)N(C(=O)Nc1ccc(F)cc1)CC31CN(S(=O)(=O)c2cn(C)cn2)C1	24.1
O=C1CSC2=NCN(c3ccc(Br)cc3)CN12	28.0
COc1ccc(CC(=O)n2nc(-c3ccc(F)cc3)cc2SC)cc1OC	3.9
CN[C@H](C(=O)N[C@H](C(=O)N(C)[C@H](/C=C(\C)C(=O)O)C(C)C)C(C)(C)C)C(C)(C)c1ccccc1	-71.3*
COC(=O)CN(c1cc(OC)ccc1OC)S(=O)(=O)c1ccccc1	-62.0
Cc1ncc(-c2c(-c3ccccc3)ncn2CCN(C(C)C)C(C)C)n1C	9.6
CCc1[nH]c2ccc(CNC(=O)CNS(C)(=O)=O)cc2c1C	6.5
Clc1cccc(-c2nnc(-c3nc(NCCC4=CCCCC4)c4ccccc4n3)o2)c1	-83.0*
O=C(CCn1c(=O)oc2cc(Cl)ccc21)NCc1ccc(N2CCCCC2)cc1	4.7
O=C(C1CCN(Cc2ccc(-c3ccn[nH]3)o2)CC1)N1CCCC1	-3.4
CCC(=O)N1[C@@H](CO)[C@@H]2c3ccccc3N(C(=O)c3cnccn3)C[C@@H]21	5.3
CCS(=O)(=O)N1CCC2(CC1)OC(=O)C(C)=C2C(=O)Nc1c(C)cc(C)cc1C	22.2
Cc1ccc2c(n1)N(Cc1cccnc1)CCN(C(=O)c1ccc[nH]1)C2	-32.7
CC(=O)c1ccccc1-c1ccc(C(=O)NC(C)(C)C)o1	39.7
CCn1ncnc1C(C)NC1CCSCC1 (stereo not drawn)	31.3
CCC(=O)OCCSc1nc2ccccc2o1	54.6
O=C(CSc1nc2ccccc2o1)c1ccc2c(c1)OCCO2	51.5
CC1(C)CC(CN2CCN(Cc3cccc(F)c3)CC2)CCO1 (stereo not drawn)	-5.2
CS(=O)(=O)Nc1ccc(C(=O)O)cc1	-1.4
Further structures:
SMILES	Tgondii IFNg
CC(CNC1CCCCC1)OC(=O)c1ccccc1 (stereo not drawn)	-31.2
C[C@@H]1CCCCO[C@H](CN(C)Cc2ccc(Cl)c(Cl)c2)[C@@H](C)CN([C@H](C)CO)C(=O)c2cc(NS(=O)(=O)c3cccs3)ccc2O1	105.9
Cc1ccc(C(=O)N2CCNC(=O)C(Cc3ccc(-c4ccccc4)cc3)C2)s1 (stereo not drawn)	-3.5
Cn1cc(CN2CC[C@@H]3[C@H]2CCN3CC2CCOC2)cn1 (stereo partly drawn)	-37.7
Cc1ccc(S(=O)(=O)Nc2cccc3c2O[C@@H](CN(C)C(=O)Nc2ccc(C(F)(F)F)cc2)[C@@H](C)CN([C@@H](C)CO)C3=O)cc1	4.8
COc1ccc(-c2nc(C)ncc2C)c2ccc(C)nc12	8.6
Cc1cccc(NC(=O)C(=O)NCCc2sc(-c3ccc(F)cc3)nc2C)c1C	87.7
CC(C)c1nc(CN(C)C(=O)C2CCOC2)no1 (stereo not drawn)	-41.5
CC(C(=O)NCc1ccccc1F)N(c1ccccc1)S(C)(=O)=O (stereo not drawn)	12.1
CN1CCN(S(=O)(=O)c2ccc(Cl)cc2)CC1	-5.8
Cc1cnc(N2CCC3(CCC(CC(=O)N4CC=CC4)CC3)CC2)nc1	-24.0
CCc1c(C)nc(SCC(=O)N2CCc3ccccc32)[nH]c1=O	17.3
CC1(C)CC(Nc2ccc(Nc3ccccc3)cc2)CC(C)(C)N1	104.9
Clc1ccccc1CSc1nc(NC2CCCCC2)c2ccccc2n1	-51.1
CC(C(=O)N1CCC(c2cc3ncccc3cn2)CC1)N1C(=O)CSC1=O (stereo not drawn)	-64.3
COCCn1cnc(-c2cc(C(=O)C3CC3)c3ccccn23)c1	8.3
CN1C(=O)CCc2cc(C(=O)N3CCCC3)ccc21	19.5
Cc1ccc(CNc2c(-c3cnc(N(C)C)nc3)nc3cnccn23)cc1	-2.9
CCC(C(=O)N1CCC(c2cc(C(F)(F)F)n3ncnc3n2)CC1)c1ccccc1 (stereo not drawn)	2.1
O=C1CC(NC(=O)CCc2cn3ccccc3n2)c2ccccc2N1 (stereo not drawn)	-43.0
CC(C)(C)c1csc(Cc2ccc(-c3csnn3)cc2)n1	-15.1
CC(C)CN1CC2CN(C(=O)NCc3ccccc3)CC(C1)O2	86.5
O=c1oc2ccccc2n1CCN1CCCC(Cn2ccnc2)C1 (stereo not drawn)	-0.6
Cc1ccc(CN2CCC3(CC2)OC(C(=O)N(C)C)c2ccccc23)o1 (stereo not drawn)	61.6
COc1ccc(CN2Cc3cn(C)nc3C(COCC3CC3)C2)cc1 (stereo not drawn)	19.8
Further records follow.
SMILES	Tgondii IFNg
Cc1ccccc1-c1nc(CN2CCN(C(=O)NCCc3ccccc3)CC2)c(C)o1	0.9
CN1CC[C@@H](c2ccc3ccccc3c2)[C@H](O)C1	0.6
CCC(=O)N1CC2(CCN(C(=O)Cc3ccccc3)CC2)c2c(n(C)c3cc(OC)ccc23)[C@H]1CO	-1.2
O=C(C[C@H]1C=C[C@@H](NS(=O)(=O)c2ccc(F)cc2)[C@@H](CO)O1)N1CCc2ccccc2C1	-24.1
CNC[C@@H]1OCc2cn(nn2)CCCC(=O)N([C@H](C)CO)C[C@H]1C	19.7
O=C(Cn1ncc2c(N3CCN(c4ccccn4)CC3)ncnc21)Nc1ccc(C(F)(F)F)cc1	69.7
CCCCC(CC)C(=O)Oc1ccc2c(c1)oc(=O)c1ccccc12 (stereo not drawn)	-39.7
O=C(c1ccn(-c2ccc3ccccn23)n1)N1CCCCC1	129.9
COC(=O)c1[nH]ncc1CN1CCCN(c2ccc(F)cc2)CC1	0.5
Cc1csc(C(C)n2ccnc2-c2cccc(CN3CCOCC3)c2)n1 (stereo not drawn)	-2.4
O=C(CN1C(=O)c2ccccc2S1(=O)=O)N1CCCC1c1nc2ccccc2[nH]1 (stereo not drawn)	26.9
COCC(=O)N1CC2(C1)CN(C(=O)NC1CCCC1)[C@H](CO)c1c2c2ccc(OC)cc2n1C	25.7
FC(F)(F)c1ccc(N2CCN(Cc3cc(Cl)cc4c3OCOC4)CC2)nc1	-84.8*
CCCNC(=O)Nc1ccc2c(c1)OC[C@H](C)N(Cc1cncnc1)C[C@@H](C)[C@H](OC)CN(C)C2=O	38.2
Fc1ccc(Nc2nc(SCc3ccccc3Cl)nc3ccccc23)cc1F	-3.6
COC(=O)c1cc(C)nc2c1c(=O)n(Cc1nc(-c3ccccc3OC)oc1C)c(=O)n2C	6.9
O=c1cc(CN2CCCC2)nc2n1CCCN(Cc1ccco1)C2	-34.0
CCCNC(=O)N1[C@H](CO)[C@H](c2ccccc2)C12CN(C(=O)C1CCCCC1)C2	-23.5
COc1ccc(-c2nc(Cn3c(=O)c4c(C)cc(C)nc4n(C)c3=O)c(C)o2)cc1OC	-9.5
COc1ccc2c3c([nH]c2c1)[C@@H](CO)N(C(C)=O)CC31CCN(C(=O)Nc2ccc(F)cc2F)CC1	-3.0
O=C(NCCc1csc(-c2ccccc2)n1)C1CCN(C(=O)c2ccccc2Cl)CC1	11.4
Cc1nnc(NCCc2ccccc2)n(N)c1=O	29.6
CS(=O)(=O)N1CC2CN(C(=O)c3cnccn3)CC2C1 (stereo not drawn)	-0.3
CN1C(=O)c2cc(NC(=O)c3cnccn3)ccc2OC[C@@H]2O[C@H](CC(=O)NCC3CCCCC3)CC[C@H]21	-7.4
O=c1oc2ccc3ccccc3c2cc1-c1nc(-c2ccccc2)n[nH]1	22.7

Continued, starting with the last 6 of the part before.
SMILES	Tgondii IFNg
COc1ccc2c3c([nH]c2c1)[C@@H](CO)N(C(C)=O)CC31CCN(C(=O)Nc2ccc(F)cc2F)CC1	-3.0
O=C(NCCc1csc(-c2ccccc2)n1)C1CCN(C(=O)c2ccccc2Cl)CC1	11.4
Cc1nnc(NCCc2ccccc2)n(N)c1=O	29.6
CS(=O)(=O)N1CC2CN(C(=O)c3cnccn3)CC2C1 (stereo not drawn)	-0.3
CN1C(=O)c2cc(NC(=O)c3cnccn3)ccc2OC[C@@H]2O[C@H](CC(=O)NCC3CCCCC3)CC[C@H]21	-7.4
O=c1oc2ccc3ccccc3c2cc1-c1nc(-c2ccccc2)n[nH]1	22.7
CCN1C(=O)N(Cc2cc(OC)c(OC)c(OC)c2)c2cccnc2N1CC	17.1
O=C(C1CCOCC1)N1CC(=O)N2[C@H](C1)[C@H](c1ccc(C#CC3CCCCC3)cc1)[C@@H]2CO	-51.3
O=C(O)c1ccc(-c2nccn2CC2(O)CCCCC2)cc1	5.1
COc1cccc([C@@H]2CCCN(C(=O)c3cn(-c4ccccc4)nn3)C2)c1	-7.6
N[C@@H](CC(=O)N1CCn2c(nnc2C(F)(F)F)C1)Cc1cc(F)c(F)cc1F	11.5&-20.4
CN1CCN(CCOc2ccc(C(=O)O)cc2)CC1	62.9
Cc1ccc(C(=O)N2CCC3(CC2)C(=O)NCCN3CC2CC2)cn1	-0.7
CSc1sc(C(=O)O)c2c1S(=O)(=O)N(C)c1ccccc1-2	27.6
CC(C)c1noc(C2CCCN2Cc2cc(C(C)(C)C)n[nH]2)n1 (stereo not drawn)	-7.5
CN(CCC1CCCCO1)C(=O)c1ccc2c(c1)OCCO2 (stereo not drawn)	31.5
CO[C@H]1CN(C)C(=O)c2ccc(NC(=O)c3ccccc3F)cc2OC[C@H](C)N(C)C[C@H]1C	73.1
COC(=O)c1sc(C(C)(C)C)cc1NC(=O)Nc1cc(Cl)cc(Cl)c1	-62.9
COc1cccc(CC2CN(C(=O)COc3ccccc3O)CCO2)c1 (stereo not drawn)	0.4
CN(C)C(=O)N1CCC(n2cccn2)c2cc(NC(=O)c3ccco3)ccc21 (stereo not drawn)	-3.5
C[C@H](CO)N1C[C@H](C)[C@@H](CN(C)CC2CC2)Oc2ccc(NC(=O)CCC(F)(F)F)cc2CC1=O	13.4
CN(C)C(=O)c1ccc(-c2ccccc2[C@@H]2[C@@H](C#N)N(C(=O)C3CC3)[C@H]2CO)cc1	-16.5
CCN(CC)C(=O)C1Cn2ccnc2C2(CCN(C(=O)C3CCOCC3)CC2)O1 (stereo not drawn)	6.5

Screens as filed in PubChem.

Only part of the results is shown; the hit share may differ from the screen's.
